Bioassay records (PubChem)
PV pol inh: inhibitors of poliovirus RNA polymerase binding and polymerization; % elongation, % (compound at 16.7 µg/mL); AID 588519; poliovirus polymerase elongation, fluorescence polarization; stronger effect = lower value; 0.66% of 150,000 active; in the data active = % elongation below about 90%; note: some results filed as inactive read as strong as hits
Target sequence (P03300 1749-2209 limits assumed): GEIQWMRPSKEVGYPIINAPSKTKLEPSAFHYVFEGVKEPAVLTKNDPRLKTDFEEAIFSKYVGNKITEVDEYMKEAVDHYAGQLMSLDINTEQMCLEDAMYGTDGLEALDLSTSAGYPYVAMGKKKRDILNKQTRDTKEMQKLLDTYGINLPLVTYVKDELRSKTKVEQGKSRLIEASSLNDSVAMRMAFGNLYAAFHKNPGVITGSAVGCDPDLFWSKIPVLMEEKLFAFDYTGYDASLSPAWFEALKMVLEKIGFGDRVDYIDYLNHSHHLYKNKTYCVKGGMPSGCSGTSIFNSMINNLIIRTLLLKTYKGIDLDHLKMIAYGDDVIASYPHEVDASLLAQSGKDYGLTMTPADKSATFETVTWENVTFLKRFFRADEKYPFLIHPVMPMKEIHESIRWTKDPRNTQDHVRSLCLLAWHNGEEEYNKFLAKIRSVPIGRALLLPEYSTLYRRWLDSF
MbtI inh: MbtI salicylate synthase inhibition; purified MbtI enzyme, fluorescence intensity read-out; inhibition, %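 (about 17 µg/mL by stock and volumes)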; 0.89% of 100,000 active; P9WFX0;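 active = above 50% in both replicates, above 80% if mildly self-fluorescent; inactive = the rest, strongly fluorescent compounds included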;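 note: 0% = mean of negative and 100% = mean of positive controls; one replicate is shown; some compounds called inactive have numbers as strong as hits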
Target sequence (P9WFX0 whole entry, looked up): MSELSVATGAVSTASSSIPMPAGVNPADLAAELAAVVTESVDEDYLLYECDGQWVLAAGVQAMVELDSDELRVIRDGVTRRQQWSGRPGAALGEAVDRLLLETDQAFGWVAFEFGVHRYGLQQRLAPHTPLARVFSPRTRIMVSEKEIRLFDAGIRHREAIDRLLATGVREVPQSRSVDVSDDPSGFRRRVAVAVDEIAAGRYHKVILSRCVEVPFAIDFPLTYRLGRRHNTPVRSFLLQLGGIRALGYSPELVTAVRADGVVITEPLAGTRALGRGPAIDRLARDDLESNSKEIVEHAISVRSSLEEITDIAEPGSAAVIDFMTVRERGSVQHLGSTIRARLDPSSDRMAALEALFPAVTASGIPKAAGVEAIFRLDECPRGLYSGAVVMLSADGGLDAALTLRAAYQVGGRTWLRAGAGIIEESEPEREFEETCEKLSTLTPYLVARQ
Mtb MenB inh: inhibitors of Mycobacterium tuberculosis MenB enzyme. P9WNP5. MenB enzyme assay, absorbance read-out; some hits fall short of the stated cut. inhibition, %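 (about 12 µg/mL by stock and volumes)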. 0.43% of 100,000 active. AID 540299;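 active = mean of two replicates above 30%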;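 note: 0% = no compound and 100% = wells with inactive enzyme; the first replicate is given; strong numbers were not always called active; inactives centre near -10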
PV pol inh intensity: also measured in PV pol inh; calls as there; % elongation; measured here: total intensity read-out; formula for this scale not given here;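 total fluorescence in place of polarization; lower means less elongation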
* hit, by the source's call; / = not tested or not shown; & = joins results of further samples.

smiles	PV pol inh	PV pol inh intensity	MbtI inh	Mtb MenB inh
CC(OC(=O)C1CC(=O)N(CCc2ccccc2)C1)C(=O)Nc1ncc(Cl)cc1Cl (stereo not given)	101	104	11	-23
O=C(CC(c1ccccc1)c1ccccc1)N1CCN(Cc2ccc3c(c2)OCO3)CC1	103	102	-21	-23
CCn1c(COC(=O)Cn2c(=O)oc3ccccc32)nc2cc(S(=O)(=O)N(C)C)ccc21	102	104	-10	-17
Cc1cnc(C(=O)OCC(=O)N2CCCc3ccccc32)cn1	101	101	-5	-20
CCN(CC)P(=N)(N(CC)CC)N(CC)CC	102	101	0	-1
CC(C)CNc1nc(=S)nc(N(C)C)[nH]1	98	103	5	9
O=C(Cn1nnc2c(cnn2-c2ccccc2)c1=O)N(c1ccccc1)c1ccccc1	102	98	4	-26
CC1(C)CC(=O)c2cc(OCC(=O)NC3CCCC3)ccc2O1	103	107	92	-2
COc1ccc(NS(=O)(=O)c2ccc3c(c2)OCC(=O)N3)cc1	102	97	12	-40
CCC(C)NC(=O)CSc1ccc(S(=O)(=O)N2CCN(Cc3ccccc3)CC2)cn1 (stereo not given)	101	102	-3	0
COc1ccc(-c2nsc3c(N4CCCCC4C)ncnc23)cc1 (stereo not given)	101	106	-5	9
Nc1nc(-c2ccco2)nn1S(=O)(=O)c1ccccc1	102	100	-6	11
CCn1c(=O)c(C)nc2cc(C(=O)Nc3ccc4c(c3)OCCCO4)ccc21	134	143	4	7
C=CCNC(=O)Cc1ccccc1OC	101	107	-15	2
COc1ccc2[nH]c(=O)c(CN(c3ccccc3)S(=O)(=O)c3ccccc3)cc2c1	99	99	10	-27
CC1CCCC(NC(=O)COC(=O)/C=C/c2ccco2)C1C (stereo not given)	102	98	6	/
COCC(C)N=C1NN=C(c2cc(C)n(-c3c(C)n(C)n(-c4ccccc4)c3=O)c2C)CS1 (stereo not given)	108	108	2	-47
CNC(=O)O/N=C/c1nn(C)cc1Br	101	95	3	-7
CN(Cc1ccccc1)C(=O)CSc1nc2ccc(Br)cc2c2nc3ccccc3n12	103	108	-12	-27
Cc1cc(C)cc(-n2c(C)cc(/C=C3\SC(=O)NC3=O)c2C)c1	101	98	-3	-14

3 compounds out of the list, arranged by count of non-hydrogen atoms, falling:
smiles	PV pol inh	PV pol inh intensity	MbtI inh	Mtb MenB inh
Cc1cnc(C(=O)OCC(=O)N2CCCc3ccccc32)cn1	101	101	-5	-20
CC1CCCC(NC(=O)COC(=O)/C=C/c2ccco2)C1C (stereo not given)	102	98	6	/
CNC(=O)O/N=C/c1nn(C)cc1Br	101	95	3	-7

(next part)
smiles	PV pol inh	PV pol inh intensity	MbtI inh	Mtb MenB inh
Cc1c(C(=O)N2CCC(C(=O)N3CCN(c4ccccc4)CC3)CC2)oc2cc3sc(N(C)C)nc3cc12	99	103	-3	1
COc1ccc(-c2nnc(SC(C)C(N)=O)o2)cc1 (stereo not given)	102	107	-7	-14
Cc1cc(C)c2nc(N3CCCC(C(=O)N4CCN(c5ccccn5)CC4)C3)sc2c1 (stereo not given)	100	103	-1	-5
N#Cc1c(C(F)(F)F)cc(C2CC2)[nH]c1=O	99	101	119	-10
Cc1cc(C)cc(Nc2ncnc3nc[nH]c23)c1	101	103	-18	-21
CC1CCN(S(=O)(=O)c2ccc3c(ccn3CC(=O)NCc3ccccc3)c2)CC1	101	107	-6	-1
O=C(Cc1ccc(-c2ccccc2)cc1)NCc1nc(-c2ccccc2)no1	103	103	-14	2
CCOC(=O)C1CCCN(C(=O)c2ccc(C)cc2O)C1 (stereo not given)	98	90	-15	22
CC1CC(=O)Nc2ccccc2N1S(=O)(=O)c1ccc(-c2cc(C(F)(F)F)on2)s1 (stereo not given)	103	105	1	2
CSc1ccc(NC(=O)NCCCN2CCC(Cc3ccccc3)CC2)cc1	100	95	4	-18
CCOC(=O)c1cnc(Nc2nc3ccccc3o2)nc1CSc1ccc(Cl)cc1	101	102	-9	-7
O=C(O)c1cc2c(s1)CCC2	99	95	8	/
Cc1nn(-c2ccccc2)c2c1C(c1ccsc1)SCC(=O)N2 (stereo not given)	101	104	2	15
Cc1ccc(C2=NN=C(NC(=O)CSc3ccccc3)SC2)cc1	102	100	-5	1
O=C(O)c1ccc(NC(=O)C2CCCCC2)cc1	101	100	-2	-3
C=CCn1c(COc2ccccc2)nnc1SC(C)C(=O)Nc1nccs1 (stereo not given)	102	104	-2	-57
CSc1nc(-c2ccc(Cl)cc2)nc(SC)c1Cl	106	97	-2	-18
O=C(C1CC1)N1CCc2cc(S(=O)(=O)Nc3ccc(Cl)cc3)ccc21	102	100	0	-23
NC(=O)C1CC(=O)N(CCc2ccc(F)cc2)C1 (stereo not given)	101	101	26	-7
CC(C)(C)n1ncc2c(=O)n(CC(=O)c3ccccc3)cnc21	105	107	1	-125
Cc1ccc2nc(NC(=O)c3nc(-c4ccccc4)oc3C)sc2c1	110	115	-10	-28
O=c1c2ccccc2[nH]c(=S)n1CC1COc2ccccc2O1 (stereo not given)	104	105	-6	-16
O=C(O)c1cn(CCOc2ccccc2)c2ccccc12	99	99	8	1
COc1cccc(C2C(C#N)=C(N)Oc3c2c(C)nn3-c2ccccc2)c1 (stereo not given)	104	108	/	6
CC1CC(C)CN(C(=O)CSc2nc3ccccc3c3nc4ccccc4n23)C1 (stereo not given)	102	105	5	1
COC(=O)c1ccc(NC(=O)CCSc2ccccc2)cc1	101	104	-10	-16
CCN(CC)CCCNc1nc(C)nc2c1nnn2Cc1ccccc1	105	102	-8	-48
Cc1noc(C)c1COc1ccc(C(=O)OCC(=O)NC23CC4CC(CC(C4)C2)C3)cc1	106	113	-14	-37
CCCNC(=O)c1ccc(NC(=O)N2CCCCc3ccccc32)cc1	99	101	4	-24
CN1C(=O)C(C)(C)c2cc(S(=O)(=O)N3CCCC3)ccc21	103	96	-1	12
c1ccc(-c2cc(-c3nnco3)c3ccccc3n2)nc1	104	106	-3	-5
O=C(NC(=O)N1CCCC1)C1CCN(c2cnc3ccccc3n2)CC1	102	106	-7	-17
CC/C(=C(\c1ccccc1)c1ccc(OCCN(C)C)cc1)c1ccccc1	100&102&103&101	102&100&102&102	-6&1&-10	-15&-3&11
Cc1nn(-c2ccccc2)c2sc(C(=O)N(Cc3ccccc3)Cc3ccccc3)cc12	102	102	-3	-5
CC(C)(C)c1nc2scc(-c3ccc(Br)cc3)c2c(=O)o1	100	100	-8	/
O=C(Cn1cnc2ccccc2c1=O)NCCSCc1ccco1	104	105	2	-21
CN1CCCCc2c1nc1ccccc1c2N	98	104	-13	-9
Cc1ccc(C(=O)CSc2cnc3ccccc3n2)cc1C	102	106	-8	/
N=C1C(c2nc3ccccc3[nH]2)=C(O)CN1CCN1CCOCC1	101	106	-2	-11
O=C(OCC(=O)N1CCCCC1)c1ccc(I)cc1	99	108	-1	9
Cc1nc2c(oc3nc(-c4ccco4)c4c(c32)CC(C)(C)OC4)c(-c2ccccc2)c1C(=O)O	94	113	11	-63
O=C(NCc1ccncc1)Nc1ccccc1	103	99	-1	27
O=C1NC(=O)c2cc(-c3ccccc3)ccc21	104	101	/	-17
Cc1cc(C)c(S(=O)(=O)N(CCC(C)C)S(=O)(=O)c2ccccc2C#N)c(C)c1	98	94	-4	-5
CC(C)C(=O)NC1C2CC3CC(C2)CC1C3 (stereo not given)	100	101	-12	-21
CCN(CC)S(=O)(=O)c1cc(C(=O)NC)ccc1Cl	99	102	-10	/
O=C(NCc1ccncc1)c1ccc(N2CCCCS2(=O)=O)cc1	107	97	2	-24
CCN(C(=O)COc1ncnc2ccccc12)C1CCCCC1	101	93	0	/
N#CCN1C(=O)c2ccccc2C1=O	102	95	3	-6
O=c1c2ccccc2nc(CNCC2CCCO2)n1-c1ccc(F)cc1 (stereo not given)	100	103	-7	-32
NS(=O)(=O)c1ccc(CNC(=O)CSc2ncccn2)cc1	107	109	2	-28
CCS(=O)(=O)NCc1csc(C)n1	99	101	5	5
CC1(C)Cc2cccc(OC(=O)c3cncc(Br)c3)c2O1	102	104	-9	/
Cc1ccc(NC(=O)CSCc2n[nH]c(=O)[nH]2)c(Br)c1	100	103	-10	-15
O=C(Nc1ccc(Cl)cc1)c1ccc(CSc2ncccn2)cc1	100	106	/	9
CCOC(=O)C1CCN(C(=O)CSc2nnc(-c3ccc(C)cc3)n2N)CC1	101	103	-2	-2
CCOc1ccc2nc(Cl)c(CN(Cc3ccco3)C(C)=O)cc2c1	102	104	22	16
COc1cc(C(=O)NCCOc2ccc(C)c(C)c2)cc(OC)c1OC	103	102	-15	-16
CN1C(=O)C(=Cc2cn(CC(=O)NCc3ccco3)c3ccccc23)C(=O)N(C)C1=O	68	192	3	-2
CCc1ccc(NC(=O)c2cnc(N3CCN(c4ccccn4)CC3)c3ccccc23)cc1	102	103	3	-4

New compounds follow.
smiles	PV pol inh	PV pol inh intensity	MbtI inh	Mtb MenB inh
O=C1OC(C(=O)NCc2ccccc2)Cc2ccccc21 (stereo not given)	100	102	1	4
Cc1sc2nc(SCCC(C)C)nc(N)c2c1C	104	109	0	-4
Cc1cc(NC(=O)c2ccc(Cl)cc2)n(-c2nc3ccccc3s2)n1	103	105	2	/
CCOC(=O)c1sc(N(Cc2ccccc2)C(=O)CSc2nnc3n2CCCCC3)nc1C	103	104	1	-3
Cc1ccsc1CCNS(=O)(=O)c1ccc(CN2C(=O)c3cccnc3C2=O)s1	104	103	-20	-44
O=C1CCCN1c1ccc(S(=O)(=O)NCCOc2ccccc2Cl)cc1	101	103	-1	31
CCn1c(O)c(C=Nc2ccc3[nH]ncc3c2)c(=O)n(CC)c1=S	122	134	-74	-12
COc1cc(CC(=O)N2CCN(C(=O)C3CCCO3)CC2)cc(OC)c1OC (stereo not given)	97	105	-1	13
O=C1NC(=O)N(Cc2ccccc2)C(=O)/C1=C/c1ccc(O)cc1	102	102	35	-68
N#CC(Cc1ccccc1)Sc1nnc2sc3ccccc3n12 (stereo not given)	100	103	6	7
CN=C1SC(CC(=O)Nc2ccc(F)cc2F)C(=O)N1/N=C(\C)c1cccc(-n2cnnn2)c1 (stereo not given)	109	108	-8	-13
CC(C)(C)C(=O)Oc1ccc(Br)cc1	100	98	10	6
CN(CC(O)Cn1c2ccccc2c2ccccc21)S(=O)(=O)c1ccc(Cl)cc1 (stereo not given)	103	97	75	-3
CCc1cc(=O)oc2c(OC(C)=O)c(OC(C)=O)ccc12	101	102	-130	-4
C=CCn1c(=O)[nH]c2nc3cc(NC(=O)CC)ccc3nc2c1=O	92	112	12	-27
Cc1cccc(OCc2nnc(SCc3nc4ccccc4nc3C)o2)c1	114	127	-5	-9
CCOC(=S)Nc1cccc2ccccc12	106	100	-5	-4
O=c1cc(CNC(c2ccccc2)c2ccccc2)nc2sccn12	104	101	5	-1
CS/C(NCC1CC1)=C(/C#N)C(=O)c1ccc(Cl)cc1	106	96	9	14
CCOC(=O)c1ccc(NC(=O)/C=C/c2cccc(C(F)(F)F)c2)s1	103	108	-5	/
COC(=O)CSc1nnc(CNC(=O)Cc2ccccc2)n1C	101	104	0	-4
O=C(CSC1CCCC1)c1ccccc1Br	100	94	-3	/
O=S(=O)(c1ccccc1)N1CCC(O)(c2ccccc2)C2CCCCC21 (stereo not given)	105	103	-10	-24
N#C/C(=C/c1ccccc1)C(=O)NCc1ccccc1	101	100	4	-6
CCOc1ccc(-c2c(C)[nH]n3c(=O)c(N4CCc5ccccc5C4)c(C)nc23)cc1OCC	103	100	11	-9
O=C(C1CC1)N1CCN=C1SCc1ccccc1	100	103	9	4
COC(=O)CC1C(=O)NCCN1C(=O)OC(C)(C)C (stereo not given)	103	103	-7	-16
c1ccc2c(c1)[I+]c1ccccc1-2	99&98	102&101	-2	3
Cc1cc(=O)n2[nH]cnc2n1	102	99	1	-2
COc1ccc(-n2c(=O)c3c4c(sc3n3cnnc23)COC(C(C)C)C4)cc1 (stereo not given)	107	104	/	0
CCOc1ccc(N2CC(c3nc4ccccc4n3Cc3ccc(F)cc3)CC2=O)cc1 (stereo not given)	101	104	-8	-5
Cc1ccccc1CN(C)C(=O)c1ccc2ccccc2n1	/	/	5	-10
Cc1nn2c3ccccc3nc2n(-c2ccccc2)c1=O	100	100	-9	-23
CC(C)NC(=O)c1ccoc1COc1ccccc1	100	105	-3	19
CCCCCn1c(NCc2ccc(N(C)C)cc2)nc2ccccc21	102	101	-3	-1
CCCc1nnc(/N=C/c2cc(-c3ccccc3)oc2O)s1	100	106	-1	-5
COC(=O)C1=C(C)Nc2nc3ccccc3n2C1c1ccccc1 (stereo not given)	100	103	27	1

Grouped by structure, those above with a CF3 group.
smiles	PV pol inh	PV pol inh intensity	MbtI inh	Mtb MenB inh
N#Cc1c(C(F)(F)F)cc(C2CC2)[nH]c1=O	99	101	119	-10
CC1CC(=O)Nc2ccccc2N1S(=O)(=O)c1ccc(-c2cc(C(F)(F)F)on2)s1 (stereo not given)	103	105	1	2
CCOC(=O)c1ccc(NC(=O)/C=C/c2cccc(C(F)(F)F)c2)s1	103	108	-5	/

Rows were taken by chance; about 1.9% have a hit in one of these screens.
